Screens deposited in PubChem BioAssay by National Center for Advancing Translational Sciences (NCATS).
Sfp PPTase inh = qHTS Assay for Inhibitors of Bacillus subtilis Sfp phosphopantetheinyl transferase (PPTase). Biochemical Sfp PPTase activity, qHTS. hit rate 3.5% among 310,000. 4'-phosphopantetheinyl transferase ffp (Bacillus subtilis), Q9F4F7. Potency, µM, inactives show max response, negative = inhibition, hits mostly inhibitors; active = well fitted inhibition curve with a large enough effect; inconclusive = small, poorly fitted or top-dose-only effect, or another doubt; inactive = no such curve, though single readings can be large or run the other way;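 also: the enzyme is Sfp with the accession as filed and its product quenches rhodamine fluorescence; potency is read from the fitted curve at half-maximal effect; 0% = enzyme reaction without inhibitor and -100% = no enzyme wells; top concentration of the series not given in the record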
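With Hepes-Na pH 7.6 buffer containing 10 mM MgCl2, Sfp (15 nM) modified BHQ-2-YbbR (12.5 uM) using rhodamine-CoA (5 uM). Two reads 30 minutes apart at 525/598 nm yielded each well's rate.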
gsp ag = qHTS for Agonist of gsp, the Etiologic Mutation Responsible for Fibrous Dysplasia/McCune-Albright Syndrome: qHTS; gsp mutant cells, cAMP HTRF, 30 min; control for the full effect not named in the record; AID 624287, 2012; Potency, µM (top dose mostly 76.9 µM), for the others: top-dose activation (cAMP increase), usual class: activators; hit rate 0.13% among 340,000; active = well fitted activation curve with a large enough effect; inconclusive = small, poorly fitted or top-dose-only effect, or another doubt; inactive = no such curve, though single readings can be large or run the other way; cell line not stated here;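 also: phosphodiesterase inhibitor Ro 20-1724 added with compounds to block cAMP breakdown; potency is read from the fitted curve at half-maximal effect; nearly all actives have a fitted effect of over 60% in size; about a fifth of the inactives were tested at one dose only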
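Cells in DMEM/10% FBS with G418 were pretreated with compounds in DMSO plus […] (300 uM stock) for 30 min at 37C. cAMP was measured by HTRF (cAMP-d2 plus anti-cAMP antibody-K) after 30 min at room temperature.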
Menin-MLL FL inh = qHTS Assay for Inhibitors Targeting the Menin-MLL Interaction in MLL Related Leukemias: Competition With Fluorescein Labeled MLL-derived Peptide. Fluorescence polarization, fluorescein-MLL peptide displacement from menin. FP activity change, % at 61.4 µM. 290,000 tested, under 10 active; inconclusive = falling polarisation curve, or a change in total fluorescence; inactive = total fluorescence flat and polarisation flat or rising; no compound was filed as active; the % refers to the polarisation; negative = inhibition;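 also: % of control where 0% means no effect; inhibitors lower the polarisation; unlabelled MLL peptide was the positive control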
TRPV1 PAM = HTS Assay for Compounds that Act as Potentiators of the Vanilloid Receptor 1; hit rate 0.02% among 320,000; Transient receptor potential cation channel subfamily V member 1 (Homo sapiens), Q8NER1; TRPV1-expressing cells, Fluo-8 calcium influx, capsaicin EC20 potentiation; host cell line not named in the record; control for the full effect not named in the record; potentiation, % at 8.33 µM; active means potentiation above 80%; inconclusive means 30% to 80%; inactive means below 30%; also: 0% is about no effect
Target sequence (Q8NER1 whole entry, looked up): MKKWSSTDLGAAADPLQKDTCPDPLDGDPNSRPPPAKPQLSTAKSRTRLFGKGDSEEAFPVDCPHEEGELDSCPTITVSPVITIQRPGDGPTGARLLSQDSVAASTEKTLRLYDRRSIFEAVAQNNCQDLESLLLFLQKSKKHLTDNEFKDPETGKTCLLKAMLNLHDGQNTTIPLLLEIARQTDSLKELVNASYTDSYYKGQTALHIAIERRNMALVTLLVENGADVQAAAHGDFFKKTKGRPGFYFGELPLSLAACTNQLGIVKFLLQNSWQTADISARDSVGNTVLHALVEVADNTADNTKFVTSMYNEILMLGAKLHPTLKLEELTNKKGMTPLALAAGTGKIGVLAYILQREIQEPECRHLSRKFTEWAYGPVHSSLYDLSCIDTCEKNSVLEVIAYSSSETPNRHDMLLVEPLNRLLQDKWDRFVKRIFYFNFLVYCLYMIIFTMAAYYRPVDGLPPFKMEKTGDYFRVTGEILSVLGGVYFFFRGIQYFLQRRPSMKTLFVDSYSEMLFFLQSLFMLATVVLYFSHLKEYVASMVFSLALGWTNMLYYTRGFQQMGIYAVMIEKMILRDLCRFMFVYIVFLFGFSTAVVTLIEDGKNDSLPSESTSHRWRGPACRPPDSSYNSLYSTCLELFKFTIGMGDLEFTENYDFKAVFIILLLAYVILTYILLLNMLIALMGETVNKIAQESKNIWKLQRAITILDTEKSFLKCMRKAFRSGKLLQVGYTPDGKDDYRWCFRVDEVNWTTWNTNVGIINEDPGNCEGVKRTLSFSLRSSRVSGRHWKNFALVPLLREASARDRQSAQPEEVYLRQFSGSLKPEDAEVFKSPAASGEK
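Cells expressing TRPV1 were dye-loaded with Fluo-8 and read kinetically: 10 s baseline, 3 min after compound (agonist portion), then 2 min after EC20 capsaicin (allosteric enhancer portion). Calcium-bound dye fluorescence at 480/520 nm.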
gsp antag = qHTS for Antagonists of gsp, the Etiologic Mutation Responsible for Fibrous Dysplasia/McCune-Albright Syndrome: qHTS | gsp-mutant cells, cAMP HTRF, 30 min; control for the full effect not named in the record | Potency, µM (highest dose often 76.9 µM), inactives show at the highest dose activity change, negative = inhibition, hits mostly inhibitors | hit rate 0.4% among 340,000 | AID 624288, 2012; active = falling curve of any shape with a large fitted effect; inconclusive = falling curve, mostly with a smaller effect; inactive = flat or rising curve; cell line not stated here;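 also: intracellular cAMP measured with PDE inhibitor Ro 20-1724 present during compound exposure; potency is read from the fitted curve at half-maximal effect; % is scaled to controls: 0 for no effect and ±100 for the full control effect; nearly all actives have a fitted effect of over 65% in size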
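HTRF cAMP measurement after 30 min RT detection following 30 min, 37C compound treatment alongside […] (added as 300 uM solution) in G418-selected cells seeded at 2000/well and grown 16–24 h.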
ClpP mod = qHTS Assay for Activators of ClpP; ATP-dependent Clp protease proteolytic subunit (Bacillus subtilis (strain 168)), P80244; Potency, µM (doses to about 57.5 µM), for inactives: top-dose activity change, negative = active; hit rate 1.9% among 340,000; AID 651965, 2013; purified B. subtilis ClpP, FRET peptide cleavage, 20 min; active = well fitted falling curve with a large enough effect; inconclusive = small, poorly fitted or top-dose-only effect; inactive = no such curve, though single readings can be large or run the other way; also: potency is read from the fitted curve at half-maximal effect; the source files actives as falling curves though it sought activators and does not explain the sign; nearly all actives have a fitted effect of over 65% in size; many hits overshoot -100%
Target sequence (P80244 whole entry, looked up): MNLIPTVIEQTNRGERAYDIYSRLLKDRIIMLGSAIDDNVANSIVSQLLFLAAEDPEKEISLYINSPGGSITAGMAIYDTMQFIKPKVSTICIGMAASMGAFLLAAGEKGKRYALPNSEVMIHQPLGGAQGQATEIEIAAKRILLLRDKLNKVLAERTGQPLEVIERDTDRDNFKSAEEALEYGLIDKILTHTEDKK
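ClpP 10 microg/mL final, pH 8 Tris/KCl buffer with BSA, glycerol, Tween-20; compound pinned in; FRET-FV substrate; RT 20 min; Ex320/Em430; ΔFRET vs ADEP 5.8 microM, DMSO, no enzyme.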
TRPML1 inh = qHTS for Inhibitors of the Human Mucolipin Transient Receptor Potential 1 (TRPML1); Mucolipin-1 (Homo sapiens), Q9GZU1; TRPML1-inducible cells, Ca2+ dye fluorescence, FDSS; active compounds read low; inhibition of EC80 agonist-evoked calcium signal; activity change, negative = inhibition, % (test concentration not listed); hit rate 0.02% among 390,000; in the data active means activity change below about -50%; inconclusive means about -30% to -50%; inactive means above about -30%;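 also: stimulus is agonist 54-4 at its EC80 concentration; % is scaled to controls: 0 for no effect and ±100 for the full control effect; compound concentration not given in the record; the text of the record puts the active cut at -80%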
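TRPML1-DL cells, Tet-induced overnight (~16 h, 37 °C) at 1,500 cells/well, were loaded with Ca8 no-wash dye plus quencher for 45-90 min at room temperature. Compounds were pinned during FDSS kinetic reading; agonist 54-4 at EC80 (4 uM final) then added.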
Numbers without * were called inactive; ? = inconclusive; . = not tested or not shown; [ ] = remark or other dose.

SMILES | Sfp PPTase inh | gsp ag | Menin-MLL FL inh | TRPV1 PAM | gsp antag | ClpP mod | TRPML1 inh
COc1cccc(-c2cc(C(F)(F)F)nc(-n3cc(C)cn3)n2)c1 | -26.6% | 2.8% | 0.3 | -16.9 | -7.4% | -11.2% | 4.3
CCOC(=O)CCc1c(C)nc2c(c(C)nn2C(C)(C)C)c1C | -8.8% | -6.7% | 2.1 | 19.9 | -9.1% | -22.2% | -5.3
COC(=O)c1cc(C)cc(=O)o1 | 7.7% | -18.9% | 2.8 | 15.3 | 7.9% | -0.8% | 20.8
CCN(CC)c1nc(Oc2ccc(C(=O)OC)cc2)nc(N2CCOCC2)n1 | ? | 4.7% | -1.6 | -11.6 | -29.6% | 0.6% | 6.9
COc1ccc(CN2CCN(Cc3csc(C(C)=O)c3)CC2CCO)c(C)c1C (stereo not drawn) | -6.4% | 13.8% | -4.8 | -2.6 | -4.1% | . | -1.7
Cc1ccc(OCCCN2CCOCC2)c([N+](=O)[O-])c1 | -16.2% | 15.1%[15.4 µM] | . | -9.3 | 5.3% | -0.7% | 20.2
Cc1onc(-c2ccccc2Cl)c1C(=O)N1CCN(c2ccccc2)CC1 | 14.9% | 3.0% | -0.8 | -4.2 | -15.2% | -3.2% | -5.7
CC(=O)Nc1cc(-c2nn(C)c(=O)c3ccccc23)ccc1N1CCCCC1 | 24.3% | ? | 0.3 | -2.0 | 3.8% | -18.1% | 8.8
CCNC(=O)CN(c1ccccc1OC)S(=O)(=O)c1cccs1 | -0.1% | 20.7%[15.4 µM] | . | -11.8 | 5.6% | -2.9% | -18.0
Cc1ccccc1N(CC(=O)NCCSCc1ccccc1)S(C)(=O)=O | 8.3% | -25.9% | -1.2 | 2.0 | 3.3% | -0.9% | -10.3
O=C(CC(NS(=O)(=O)c1ccc(Cl)cc1)c1ccco1)NCc1ccco1 (stereo not drawn) | 1.3% | 4.5% | 0.7 | -2.6 | 0.9% | 25.1µM* | -10.1
CC(C)C(=O)Nc1ccc(N2CCCC2)c(Cl)c1 | -1.1% | ? | -1.7 | -21.3 | -10.3% | 1.2% | 16.5
CC1(C)Cc2c(cnn2-c2ccccc2)C(NC(=O)CCc2ccc(=O)[nH]n2)C1 (stereo not drawn) | 11.4% | ? | -1.1 | 3.2 | 2.4% | -2.4% | 4.6
COc1cc(COCC(O)CN2CCOCC2)cc(OC)c1OC (stereo not drawn) | -9.4% | 1.3% | -1.8 | 6.4 | 6.3% | 1.0% | 39.0
COc1ccc(CNC(=O)C2CCC(CNS(=O)(=O)c3ccccc3)CC2)cc1 (stereo not drawn) | 8.2% | -38.0% | -8.3 | 10.2 | -6.2% | -0.4% | -7.8
Cc1ccc2oc(C(=O)N3CCN(Cc4nccn4C)CC3)c(C)c2c1 | 14.2% | 35.8% | . | 1.3 | 6.2% | -2.9% | -11.4
O=C(Cc1cccs1)NNC(=O)c1ccccc1Cl | . | 4.7% | . | 7.6 | 9.5% | -0.6% | -15.0
O=C(NCCCN1CCCCC1)c1ccc2c(=O)n(CCc3ccccc3)c(=O)[nH]c2c1 | 0.8% | 14.6%[15.4 µM] | -0.7 | -12.2 | 5.8% | ? | 44.7
CCOC(=O)C1=C(C)NC(C)=C(C(=O)OCC)C1c1cc(N)ccc1OC(F)F | 2.5% | -34.4%[inhibitor] | -5.4 | -7.0 | 9.6% | -12.0% | -12.7
Cc1ccc(S(=O)(=O)Nc2cccc(-c3ccc4nncn4n3)c2)cc1 | . | 4.8% | . | ? | 18.5% | 1.1% | 1.4

Looked up above:
Cc1ccc(S(=O)(=O)Nc2cccc(-c3ccc4nncn4n3)c2)cc1 – ClpP mod: 1.1%
COc1ccc(CN2CCN(Cc3csc(C(C)=O)c3)CC2CCO)c(C)c1C (stereo not drawn) – TRPML1 inh: -1.7

New compounds follow.
SMILES | Sfp PPTase inh | gsp ag | Menin-MLL FL inh | TRPV1 PAM | gsp antag | ClpP mod | TRPML1 inh
O=[N+]([O-])c1cccc2c1ccc1ncccc12 | 11.1% | -8.2%[15.4 µM] | -0.4 | -6.2 | 18.4% | 0.2% | 2.4
COc1ccc(N2CCN(C(=O)c3cc4c(-c5ccc(Cl)cc5)nn(C)c4s3)CC2)cc1 | 10.7% | -53.2%[inhibitor] | 2.0 | 23.4 | 1.2% | 3.5% | -7.9
COc1cc(NC(=O)CN(C)S(=O)(=O)c2ccc3c(c2)CCC(=O)N3)cc(OC)c1 | 21.5% | -24.2% | 1.8 | -7.7 | 2.0% | -3.9% | -14.4
Cc1ccc(-c2nnc(SCC(=O)Nc3nccs3)n2N)cc1 | 2.0% | 4.8% | 3.5 | 13.0 | 12.3% | -1.3% | -1.9
O=C(O)C1CCCN1C(=O)OCc1ccccc1 (stereo not drawn) | 22.7% | 13.0% | 1.0 | -7.0 | 2.9% | 1.1% | -15.1
CCCCCN(C(=O)CCC(=O)OCC(=O)c1c(C)cc(C)cc1C)c1c(N)n(CCCC)c(=O)[nH]c1=O | . | 21.7%[15.4 µM] | . | 5.2 | -6.0% | . | 6.2
CCOC(=O)Cc1csc(NC(=O)c2ccc(Br)o2)n1 | 8.7% | -5.9% | 1.6 | -18.3 | 8.0% | -0.8% | -11.6
CCCCOc1ccc(-c2nnn(C(C)C(=O)OCC)n2)cc1 (stereo not drawn) | 2.2% | -7.6% | 2.5 | -8.4 | ? | -2.7% | 9.0
O=C(CN1C(=O)NC2(CCCCCC2)C1=O)N1CCN(S(=O)(=O)c2ccccc2)CC1 | 8.2% | -25.8% | 0.0 | -3.6 | -8.7% | -2.0% | -16.0
Cc1ccc(-c2nc3cc(N)ccc3o2)cc1 | 10.2% | ? | -0.3 | 6.4 | 4.5% | -7.8% | 7.5
O=C(CC1(O)C(=O)N(Cc2cccc3ccccc23)c2ccccc21)c1cccnc1 (stereo not drawn) | 4.3% | 3.0% | 4.1 | -5.1 | 4.2% | -0.1% | -3.5
O=C(Nc1ccccc1)N1CC=C(c2ccc(F)cc2)CC1 | 2.6% | -22.2% | -1.0 | 7.6 | -6.0%[15.4 µM] | -10.1% | 14.9
COc1cccc(C2C=C(Nc3ccccc3)C(=O)N2c2ccccc2)c1 (stereo not drawn) | 63.1µM* | -4.6%[15.4 µM] | 18.2 | 4.7 | -22.5% | . | 18.1
O=C1CCCCC1Sc1ccc(Cl)cc1[N+](=O)[O-] (stereo not drawn) | . | -4.3% | . | . | 0.3% | . | 34.2
O=C(CCCCCN1C(=O)c2cccc3cccc(c23)C1=O)NC1CCS(=O)(=O)C1 (stereo not drawn) | 7.1% | 25.8% | 3.6 | -3.3 | -3.4% | 3.2% | 2.2
Cc1ccc([N+](=O)[O-])c(NC2OC(CO)C(O)C2O)c1 (stereo not drawn) | 11.1% | -11.4%[15.4 µM] | -3.2 | ? | -3.9% | -4.8% | 2.5
COC(=O)C1CCN(C(=O)Cn2nnc(-c3ccccc3)n2)CC1 | 16.7% | 16.5% | 4.2 | 0.9 | -2.4% | . | -2.3
CCOC(=O)c1c(NCCN(C)C)c2ccccc2[nH]c1=O | 2.0% | ? | 6.2 | 4.8 | 9.1% | -3.6% | .
COCCn1c(C)c(C(=O)O)sc1=S | 0.5% | -0.7% | 3.2 | -7.1 | 6.9% | -1.9% | 20.7
Cc1cccc2c1N(C(=O)CN1C(=O)c3ccccc3C1=O)C(C)(C)c1ssc(=S)c1-2 | -14.1% | -3.1% | -1.5 | -11.0 | -6.3% | -2.9% | -15.8
COc1ccc2c(c1)c(=O)c(C(=O)c1ccc(Cl)cc1)cn2CC(=O)Nc1ccc(F)cc1 | ? | ? | 7.3 | 13.5 | -0.5% | -1.8% | -1.3
c1ccc(-c2c[n+]3c(n2-c2ccccc2)SCC3)cc1 | 10.5% | 15.2% | 5.0 | 15.6 | 14.5% | . | -8.0
Cc1ccc(C(NC(N)=O)c2ccccc2)cc1 (stereo not drawn) | -10.5% | -5.2% | -0.8 | -1.2 | 3.2% | -2.4% | 0.4
Cc1ccc(NC(=S)NNc2ccc(C(=O)O)cc2[N+](=O)[O-])cc1C | . | -19.6%[15.4 µM] | . | . | -18.8% | -0.5% | -3.0
O=C(NNC(=O)c1cc2ccccc2o1)c1ccncc1 | . | 3.3% | . | . | -0.6% | . | 1.5
COc1ccc(N2C(=NC(=O)C3CCCCC3)SC3CS(=O)(=O)CC32)cc1 (stereo not drawn) | 8.9% | 26.8% | 6.8 | -5.2 | -6.4% | 1.9% | 20.3
CCOC(=O)c1ccc(N/C=C\C(=O)c2cccc(OC)c2)cc1 | -14.7% | ? | . | -23.1 | 6.6% | -8.1% | 2.2
CCOC(=O)c1c(NC(=S)NCC2CCCO2)sc(C)c1C (stereo not drawn) | 22.4µM* | ? | -0.6 | 17.6 | -26.4% | . | -6.2
N[C@H](CSCc1ccccc1)C(=O)Nc1ccc([N+](=O)[O-])cc1 | 4.7% | 15.3% | -7.6 | -23.9 | 0.4% | . | -3.1
Cn1c(=O)c2c(SCC(=O)N3CCCC3)nc(CC(C)(C)C)nc2n(C)c1=O | -4.0% | 31.4% | . | ? | -16.5% | 0.0% | -2.5
CCCCC/C=N\NC(=O)Cc1ccc([N+](=O)[O-])cc1 | 12.1% | -2.9% | 6.0 | -42.4 | 26.8% | -1.6% | 5.0
CCc1cc(=O)oc2cc(OCc3nn[nH]n3)ccc12 | 16.3% | 9.1% | 5.6 | -8.6 | -1.7% | ? | -17.1
